# Assay outcomes from PubChem.
# rRNA inh HTS = reduced GFP signal of wild-type E. coli, primary screen, bacterial rRNA inhibitor project, GFP/RFP fluorescence, OD600, single point | E. coli WT GFP vs humanized-ribosome RFP mutants, 24 h; hits give low values; DMSO median 0, no signal -100 | GFP signal change (wild-type ribosome), % (no concentration beside the values) | 350,000 tested, 1.6% active | AID 720706, 2013;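 active = significant combined selectivity score with lowered wild-type GFP, culture density cut under 30%, mutant RFP and density less affected; inactive = any of these conditions unmet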; also: one replicate is shown; some compounds called inactive have numbers as strong as hits
# ALR H2O2 inh = inhibitors of human ALR sulfhydryl oxidase, primary screen, biochemical, H2O2 detection, HRP-luminol luminescence, single point; 290,000 tested, 3.8% active; inhibition, % (no concentration beside the values); purified ALR, DTT oxidation; FAD-linked sulfhydryl oxidase ALR (Homo sapiens), P55789;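 active = mean and each replicate at 75% or more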;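 also: stock transfer was 7.5 nL into about 7.5 µL; 0% = neutral wells and 100% = wells with inactivated enzyme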
# Target sequence (P55789 whole entry, looked up): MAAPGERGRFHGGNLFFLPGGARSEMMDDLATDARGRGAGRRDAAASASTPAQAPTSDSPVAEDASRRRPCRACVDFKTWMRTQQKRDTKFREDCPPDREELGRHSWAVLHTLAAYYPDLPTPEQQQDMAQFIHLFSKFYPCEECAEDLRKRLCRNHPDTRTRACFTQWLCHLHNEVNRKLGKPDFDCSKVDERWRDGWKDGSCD
# E coli growth = E. coli growth inhibition, primary screen, OD600; OD600 absorbance (test concentration not listed); AID 1053175, 2014; 330,000 tested, 0.21% active; Escherichia coli growth, 23 h; hits give low values;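 active = OD600 absorbance below the run mean of sample wells minus 3.6 SD, in any replicate, cut at about 0.56 in these data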;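 also: stock transfer was 300 nL into about 60 µL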
# Beta2AR agonist = beta2AR agonists driving receptor internalization, primary screen, cell-based, FAP fluorogen, flow cytometry; Beta-2 adrenergic receptor (Homo sapiens), P07550; Am2.2-beta2AR cells; reference of the scale not given here; response, % (concentration not given with the values); 340,000 tested, 0.43% active; AID 504454, 2011;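 active = response above a set limit, near 3 SD of response in nonfluorescent compounds, cut at about 42% in these data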;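 also: stock transfer was 100 nL into about 11 µL; a reference agonist was the positive control; negative values mostly stem from fluorescent compounds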
# UCH37 inh = inhibitors of human UCH37 deubiquitinase, primary screen, biochemical, Ub-AMC cleavage, fluorescence | purified proteasome/UCH37 | 330,000 tested, 0.33% active | inhibition, % (test concentration not listed) | Ubiquitin carboxyl-terminal hydrolase isozyme L5 (Homo sapiens), Q9Y5K5;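 active = mean of two replicates above 20%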;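 also: 0% = compound-free wells with enzyme and 100% = wells lacking proteasome; stock transfer was 100 nL into about 20 µL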
# Target sequence (Q9Y5K5 whole entry, looked up): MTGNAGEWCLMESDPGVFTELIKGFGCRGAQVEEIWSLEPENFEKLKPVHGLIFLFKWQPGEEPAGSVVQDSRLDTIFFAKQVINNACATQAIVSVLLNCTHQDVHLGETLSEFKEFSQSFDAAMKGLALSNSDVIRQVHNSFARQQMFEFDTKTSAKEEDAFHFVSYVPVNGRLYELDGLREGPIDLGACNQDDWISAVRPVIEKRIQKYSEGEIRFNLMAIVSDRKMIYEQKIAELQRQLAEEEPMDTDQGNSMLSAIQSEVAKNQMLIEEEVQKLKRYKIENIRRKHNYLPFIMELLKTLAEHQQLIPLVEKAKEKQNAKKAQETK
#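 Schedule: 30 min plus 25 min, room temperature / Material: human UCH37 within purified proteasomes / Technique: AMC fluorescence intensity at 355/460 nm / Buffer or medium: pH 7.4 Tris-HCl (50 mM) with ovalbumin, ATP-MgCl2, DTT / Controls: wells without proteasome as full block, compound-free enzyme plus substrate as uninhibited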
# HNF4A DNA FP = change in binding of human HNF4A to DNA, primary screen, biochemical, fluorescence polarization, FITC-DNA; Hepatocyte nuclear factor 4-alpha (Homo sapiens), P41235; activity change, % at 10 µM; 360,000 tested, 0.3% active; 1 h; in the data active = activity change above about 30%, passing the limit was not always enough;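 also: controls were the assay level and a saturating level of protein; the project sought stronger binding though the title names inhibitors; some compounds called inactive have numbers as strong as hits; positive values seem to mean higher polarization but the record does not say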
# FGF22 binding = binders of human FGF22 protein, primary screen, FGF22 synaptogenesis inhibitor project, biophysical, thermal shift, single point | calls only at 9.99 µM | 340,000 tested, 1.5% active | Fibroblast growth factor 22 (Homo sapiens), Q9HCT0 | recombinant FGF22 thermal shift, SYPRO orange fluorescence; percent of sucrose octasulfate shift, DMSO zero;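 active = melting point raised past a set limit in the mean and every replicate; three in four hits are not shown here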
# Target sequence (Q9HCT0 whole entry, looked up): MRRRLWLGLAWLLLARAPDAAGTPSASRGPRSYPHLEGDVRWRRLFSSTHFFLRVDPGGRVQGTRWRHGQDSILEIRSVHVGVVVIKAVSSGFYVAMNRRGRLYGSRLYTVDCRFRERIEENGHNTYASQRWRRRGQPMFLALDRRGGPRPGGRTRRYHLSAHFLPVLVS
# rRNA inh HTS OD600 = second read-out of rRNA inh HTS, no call of its own (marks repeat the call); OD600 change, %; measured here: OD600 growth;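 optical density of the mix in the first replicate; 0 = DMSO median and -100 = no signal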
# rRNA inh HTS RFP = further read-out of rRNA inh HTS, marked with its call; RFP signal change, %; measured here: RFP humanized mutant strains;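 first replicate; 0 = DMSO median and -100 = no signal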
# Starred values were filed as active, the others as inactive; i = inactive; . = no result given. Some of the compounds tested; count on the stated rates, not on these rows.
# Value order – HNF4A DNA FP, rRNA inh HTS RFP, rRNA inh HTS OD600, rRNA inh HTS, UCH37 inh, Beta2AR agonist, ALR H2O2 inh, FGF22 binding, E coli growth
O=C(NC1CCCCCC1)c1nnc(Cc2ccc(Cl)cc2)o1
→ -1.5, -0.1, 7, 3, 7.1, -16, 3, i, 0.71
O=C(OCC(=O)N1CCN(C(=O)COC(=O)c2ccncc2)CC1)c1ccncc1
→ -0.9, ., ., ., -4.8, 12, ., ., 0.7
O=C(c1ccc(F)cc1)C1CCN(Cc2cn[nH]c2-c2ccc(F)cc2)CC1
→ 2.7, ., ., ., 5.5, -12, -16, i, 0.62
COc1cccc(C2CC(c3ccccc3Cl)Nc3nc(N)nn32)c1 (configuration not stated)
→ 0.2, ., ., ., 0.0, 25, 16, ., 0.65
CCn1c(=O)cc(OCC(=O)NC2CC2)c2ccccc21
→ 1.0, -2.0, 3, -3, 5.9, 11, 1, i, 0.7
CC(C)[C@@H]1CN=C(N)N1C[C@@H]1CCCN1C[C@H](C)N1C[C@@H](Cc2ccccc2)N(CCc2ccc(Cl)c(Cl)c2)C1=N
→ 1.9, ., ., ., 7.3, 8, ., ., 0.56
CN(CC(=O)Nc1c(Cl)cccc1Cl)C(=O)c1cccn1C
→ 1.8, -0.3, 11, 22, 3.0, 12, -1, i, 0.74
CCOc1ccc(Cl)cc1-c1cc(C(=O)Nc2ccc(F)cc2)[nH]n1
→ 4.2, 18, -60, -17, ., ., ., i, .
Cc1ccc(NS(=O)(=O)c2cc(C(=O)NCc3ccncc3)ccc2C)cc1
→ 0.7, 1.8, 1, -14, -1.7, 2, -2, i, 0.72
OCC[C@@H]1C[C@H](O)[C@@H](O)[C@@]2(CCCO2)O1
→ -0.3, 0.5, 10, 8, 6.2, 3, ., i, .
CCOCCCNC(=O)c1ccccc1SC
→ 2.5, ., ., ., 2.0, -2, -4, ., 0.79
O=C(NCCCc1ccccc1)c1cccc(NC(=O)C2CCC2)c1
→ -5.2, -12, -4, -8, ., -12, ., i, .
CCCn1cc(CN2CCN(Cc3ccc(C)o3)C(CCO)C2)c(C)n1 (configuration not stated)
→ -3.3, -1.7, 3, 6, -0.5, 0, 10, i, 0.69
CC(C)(C)OC(=O)N[C@H](C(=O)OC(C)(C)C)c1ccc2c(c1)OCO2
→ -2.3, 0.7, -28, -10, 2.3, 3, -10, i, .
CC(=O)c1ccc(S(=O)(=O)N2CCN(CCOc3ccccc3)CC2)cc1
→ 0.6, 1.3, -1, 4, 3.6, -11, -19, i, 0.73
COC(=O)c1sccc1NC(=S)N1CCCCC1
→ 3.1, ., ., ., 4.5, 2, -3, ., 0.67
CC1=C(C(=O)Nc2ccccc2)C(c2cccs2)NC(=O)N1 (configuration not stated)
→ -1.5, -0.6, 10, 4, 3.4, 7, -1, i, 0.74
CCN1C[C@@H]2[C@@H]3C(=O)N(C)C(=O)[C@@H]3[C@](C)(C1=O)N2C(=O)c1ccccc1
→ -3.0, 5.6, 11, 13, 1.3, -1, ., i, .
COC(=O)c1ccccc1NC(=O)N1c2ccccc2CC1C (configuration not stated)
→ -1.9, -11, -50, -34, 2.5, -6, 1, ., 0.68
Fc1cccc(CSc2ccc3nnc(-c4ccccn4)n3n2)c1
→ 2.7, -1.4, -13, -7, 3.1, 3, -1, i, 0.68
COc1cccc(NC(=O)CCC2CCN(C(=O)C(OC)c3ccccc3)CC2)c1 (configuration not stated)
→ -1.0, -4.0, 4, -2, ., ., ., i, .
Cc1ccc(CC(=O)N2CCN(C(=O)C3CCCO3)CC2)cc1 (configuration not stated)
→ -5.0, 0.7, 22, 18, 0.4, 2, -7, i, 0.7
COc1ccc(C2=Cc3ccc(OC(C)=O)cc3OC2)cc1
→ -0.5, -0.4, 5, 8, ., 0, ., i, .
O=C(COC(=O)c1cc(Cl)cc(Cl)c1)NCc1ccco1
→ -2.6, -2.9, -7, -2, 0.4, 1, 6, i, 0.63
O=C(Nc1ccccc1C(=O)NCc1ccco1)c1ccco1
→ 1.9, 1.3, -3, 4, -1.7, -5, -1, ., 0.7
COc1ccc(-n2c(Cc3cccn3C)nnc2SCC(=O)Nc2cccc(NC(C)=O)c2)cc1
→ 0.3, ., ., ., 1.6, 0, 18, ., 0.69
CCN(CC)CCNC(=O)c1cc2c(=O)n(C)c3ccccc3c2n1C
→ -3.7, 3.6, 6, -2, 0.1, 0, -5, i, 0.75
CCOc1ccc(C(CC(=O)O)NC(=O)CCCOc2ccc(Cl)cc2C)cc1 (configuration not stated)
→ 2.5, -1.6, -24, -14, 4.0, -6, 2, i, 0.69
CCSCCOC(=O)C1=C(C)NC2=C(C(=O)CCC2)C1c1coc2ccccc2c1=O (configuration not stated)
→ -0.3, ., ., ., 6.6, 2, -1, ., 0.75
CN(C)C(=S)N=Nc1[nH]c2ccccc2c1O
→ ., 0.4, 3, 6, 18, ., 14, i, 0.69
CCOC(=O)c1c(-c2ccc(C)o2)csc1NC(=O)CN1CCC(C(N)=O)CC1
→ -1.9, -2.0, -55, -40, 3.3, 16, 4, i, 0.66
Cc1ccc(NC(=S)N2CCCC(c3nc4ccc(C)cc4[nH]3)C2)c(C)c1 (configuration not stated)
→ 1.7, ., ., ., -0.4, 2, -3, ., 0.72
O=C(O)CCNc1ccc(Cl)cc1
→ -0.7, -0.2, -5, -1, 2.2, 13, 30, i, 0.64
CCc1ccccc1NC(=O)N1CCC(NC(=O)C(Cc2ccccc2)NC(C)=O)CC1 (configuration not stated)
→ -1.9, -0.3, 9, 12, 0.6, -4, 11, i, 0.66
Cc1cc(OCC(=O)N(C)Cc2ccccc2)ccc1Cl
→ 1.3, -1.0*, -24*, -30*, 1.1, -12, 3, i, 0.66
O=C1/C(=C\c2ccccc2)CCc2c1[nH]c1ccccc21
→ -0.7, ., ., ., -4.0, -9, -19, ., 0.7
Cc1ccc(NC(=O)COc2cccc3ccccc23)c(O)c1
→ -0.5, -1.1, -3, -3, 1.9, -2, ., i, 0.67
O=C(CSc1n[nH]c(=O)[nH]c1=O)Nc1cccc(S(=O)(=O)N2CCOCC2)c1
→ 1.5, 5.2, 10, 4, 3.2, -10, 2, i, 0.7
CCOC(=O)c1c(C)nn(-c2ccc(NC(=O)/C=C/C(=O)O)cc2)c1C
→ 0.1, ., ., ., 1.8, -7, 8, i, 0.67
COc1ccc(CCNC(=O)C2CC3Cn4c(nc5ccccc54)C3N2Cc2ccccc2)cc1 (configuration not stated)
→ 2.5, -1.7, 10, 10, -3.7, -8, -6, i, 0.65
CC(C)(C)C1CCC(=NOC(=O)c2ccc(F)cc2)CC1 (configuration not stated)
→ 0.3, -8.7*, -6.8*, -41*, 1.3, -2, 4, i, 0.73
Cc1cc2c(c(Sc3ccccc3)n1)C(=O)OC2
→ -1.2, ., ., ., -1.0, -12, -10, ., 0.73
C=CCNc1ncnc2c1ncn2[C@H]1CN(CCOC)C[C@@H](CO)O1
→ 6.1, 2.2, 5, 15, ., ., ., i, .
Nc1nnc(/C=C/c2cccc([N+](=O)[O-])c2)s1
→ -0.6, 0.4, 11, 13, 7.7, -9, -1, i, 0.68
Cc1sc2ncnc(Sc3ccccc3C(=O)Nc3ccccc3Cl)c2c1C
→ 1.8, 0.2, 1, 4, 3.6, 0, -9, i, 0.72
N#C/C(=C\c1ccc(F)cc1)c1nc(-c2ccco2)cs1
→ 15, 8.7, 12, -1, 3.5, 0, -1, i, 0.67
COc1ccc(Nc2cc(C)c3cc([N+](=O)[O-])ccc3n2)cc1
→ 9.3, 1.0, -29, -11, 3.5, 2, 52, i, 0.65
Nc1ncc(Br)cc1S(=O)(=O)NCCC(=O)NCCc1ccccc1
→ 2.0, 0.6, -10, -8, -5.8, 6, -7, i, 0.67
Cc1noc(C)c1/C=N/Nc1ccccn1
→ -0.1, 2.7, 13, 20, ., 1, -26, ., .
Cc1oc2nc(SCC(=O)NCc3cccnc3)nc(N)c2c1C
→ 6.8, ., ., ., 0.6, 1, -5, ., 0.71

# (cont.)
# Value order – HNF4A DNA FP, rRNA inh HTS RFP, rRNA inh HTS OD600, rRNA inh HTS, UCH37 inh, Beta2AR agonist, ALR H2O2 inh, FGF22 binding, E coli growth
COc1cccc(/C=C2\SC(=O)NC2=O)c1OCc1ccc(C(=O)O)cc1
→ -0.4, 0.5, -42, -12, 8.1, 8, 23, ., 0.68
O=C(O)C(c1ccccc1)N1C(=O)c2cccc3cccc(c23)C1=O (configuration not stated)
→ 1.6, -7.0, -18, -11, -6.5, -1, 1, i, 0.69
O=C(Nc1cc2c(cc1Cl)OCCO2)c1ccco1
→ -2.5, ., ., ., 3.2, 3, -5, ., 0.67
COc1ccc(-c2[nH]ncc2CN2CCC(OCc3cccnc3)CC2)c(F)c1
→ -5.5, 0.4, 13, 7, -2.1, -2, 5, i, 0.68
Cc1ccccc1C(=O)Nc1ccccc1-n1cccc1
→ 4.2, 1.2, 6, 4, -1.0, -1, ., i, 0.65
O=C1OC(N2CCN(Cc3ccccc3)CC2)c2ccccc21 (configuration not stated)
→ -0.9, ., ., ., 0.8, 1, -4, ., 0.67
CCOC(=O)c1ccc2c(c1)C(=O)N(C1CCCCC1)C2=O
→ -2.7, ., ., ., 1.8, 1, -6, i, 0.64
O=C1NCCn2nc3ccccc3c21
→ 0.0, 11, 10, 8, -10, 0, -14, i, 0.67
COCCn1c(=NC(=O)CCS(=O)(=O)c2ccccc2)sc2c(OC)ccc(OC)c21
→ 8.1, -3.6, 3, 4, -12, 5, 5, i, 0.75
COc1ccc(NC(=O)CN(C)C(=O)C23CC4CC(CC(C4)C2)C3)cc1
→ -1.4, 0.9, -10, -19, 1.8, -5, 4, i, 0.69
COc1ccc(C)cc1NC(=O)CC1COc2ccccc2O1 (configuration not stated)
→ -1.4, -1.8, -11, -7, 4.6, 17, 0, i, 0.68
CC(=O)c1cccc(NC(=S)NC(=O)c2ccc(Cl)cc2)c1
→ 2.7, 1.0, 8, 3, 2.6, -12, -28, i, 0.72
NC(Cc1ccc(F)cc1)c1csc(Nc2ccc(C(=O)c3ccccc3)cc2)n1 (configuration not stated)
→ 3.1, -17, -78, -54, ., ., ., i, .
Cc1cccc(NC(=O)/C=C/c2ccc3c(c2)OCO3)n1
→ -1.5, ., ., ., -7.8, 10, -22, ., 0.7
CC(=O)Nc1ccc(S(=O)(=O)N[C@@H](C)C(=O)OCC(=O)Nc2ccc3c(c2)OCCO3)cc1
→ -3.5, -2.6, 3, 7, ., 10, ., i, .
CC1CCc2cc(F)ccc2N1C(=O)CN1C(=O)c2ccccc2C1=O (configuration not stated)
→ 2.8, ., ., ., 2.0, 1, 8, ., 0.75

# Part of the list above in order of number of heavy atoms, high to low:
# Value order – HNF4A DNA FP, rRNA inh HTS RFP, rRNA inh HTS OD600, rRNA inh HTS, UCH37 inh, Beta2AR agonist, ALR H2O2 inh, FGF22 binding, E coli growth
NC(Cc1ccc(F)cc1)c1csc(Nc2ccc(C(=O)c3ccccc3)cc2)n1 (configuration not stated)
→ 3.1, -17, -78, -54, ., ., ., i, .
CCN1C[C@@H]2[C@@H]3C(=O)N(C)C(=O)[C@@H]3[C@](C)(C1=O)N2C(=O)c1ccccc1
→ -3.0, 5.6, 11, 13, 1.3, -1, ., i, .
Cc1cccc(NC(=O)/C=C/c2ccc3c(c2)OCO3)n1
→ -1.5, ., ., ., -7.8, 10, -22, ., 0.7
